Screens as filed in PubChem BioAssay.
Cruzain inh Det = blocks cruzain activity in presence of Triton detergent. purified cruzain, Z-FR-AMC fluorescence, 0.01% Triton. Potency, µM, for the others: max response, negative = inhibition, most hits filed as inhibitors. 200,000 compounds, 0.43% hits; active = well fitted curve in the direction sought with a large enough effect; inconclusive = small, poorly fitted or top-dose-only effect, or another doubt; inactive = no such curve, though single readings can be large; an effect the other way counts as inactive or inconclusive;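 note: plate controls were neutral wells for no effect and buffer without enzyme for full effect; nearly all actives have a fitted effect of over 40% in size; top concentration of the series not given in the record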
Target sequence (P25779 123-467 limits assumed): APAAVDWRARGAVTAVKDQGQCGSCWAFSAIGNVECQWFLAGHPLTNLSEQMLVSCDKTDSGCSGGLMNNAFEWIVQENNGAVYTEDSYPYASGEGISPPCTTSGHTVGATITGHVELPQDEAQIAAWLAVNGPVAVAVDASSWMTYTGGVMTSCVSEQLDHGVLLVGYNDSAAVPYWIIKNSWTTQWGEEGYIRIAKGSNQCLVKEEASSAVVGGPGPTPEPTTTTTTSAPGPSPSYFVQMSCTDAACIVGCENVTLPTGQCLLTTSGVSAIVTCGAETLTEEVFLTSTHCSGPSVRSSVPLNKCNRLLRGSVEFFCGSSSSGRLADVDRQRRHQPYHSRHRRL
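Sodium acetate buffer (100 mM, pH 5.5) containing 5 mM DTT and 0.01% Triton X-100 hosted 1.5 nM cruzain and test compound for 15 min at room temperature. Cleavage of 2 uM Z-FR-AMC was then tracked by fluorescence.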
Cruzain inh noDet = cruzain (T. cruzi) inhibition without detergent | P25779 | Potency, µM, for the others: max response, negative = inhibition, most hits filed as inhibitors | 200,000 compounds, 2.3% hits | purified cruzain, Z-FR-AMC fluorescence, no detergent; active = well fitted curve in the direction sought with a large enough effect; inconclusive = small, poorly fitted or top-dose-only effect, or another doubt; inactive = no such curve, though single readings can be large; an effect the other way counts as inactive or inconclusive;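 note: plate controls were enzyme without inhibitor for no effect and buffer without enzyme for full effect; nearly all actives have a fitted effect of over 40% in size; top concentration of the series not given in the record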
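Detergent-free condition (0.00005% Triton X-100) in acetate buffer pH 5.5 with DTT. 1.5 nM enzyme and compound were pre-mixed 15 min, then 2 uM Z-FR-AMC substrate added; reaction progress from fluorescence change between first and third reads (60 s).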
Marburg entry inh = Marburg virus entry inhibition | Marburg virus pseudotyped entry inhibition, cell reporter; control for the full effect not named in the record; about a third of the inactives were read at about 46 µM | Potency, µM (series often up to 37.8 µM), for the others: top-dose activity change, negative = inhibition, hits mostly inhibitors | 300,000 compounds, 1.8% hits | AID 540276; active = well fitted inhibition curve with a large enough effect; inconclusive = small, poorly fitted or top-dose-only effect, or effect the other way; inactive = flat fitted curve, though single readings scatter; tested in HEK293 cells; about a fifth of its hits are not listed in these tables; note: % is set by controls: 0 for no effect and ±100 for the full control effect; luciferase read-out
SARS PLP yeast = blocks SARS-CoV papain-like protease in a yeast assay. S. cerevisiae expressing SARS-CoV PLpro, growth rescue; control for the full effect not named in the record. Potency, µM (top dose mostly 32.9 µM), without a hit: at the highest dose activity, positive = growth rescue. 330,000 compounds, 0.19% hits. AID 485353; note: 0% is about no effect; nearly all actives have a fitted effect of over 55% in size; growth read by luminescence after 48 h
StopGo reporter = FMDV 2A StopGo reporter, luciferase signal; 410,000 compounds, 1.2% hits; Potency, µM (top dose mostly 57.9 µM), for inactives: at the top dose signal change, negative = less light; human cells with a luciferase reporter of 2A StopGo recoding; control for the full effect not named in the record; AID 1159524; active = well fitted falling curve with a large enough effect; inconclusive = small, poorly fitted or top-dose-only effect; inactive = no such curve, though single readings can be large or run the other way; tested in HEK293T cells; note: % is set by controls: 0 for no effect and ±100 for the full control effect; nearly all actives have a fitted effect of over 45% in size; luciferase light after 4 h
Lassa entry inh = blocks Lassa virus binding to or entry into cells; Lassa virus pseudotype entry inhibition, cell reporter; control for the full effect not named in the record; Potency, µM (highest dose often 37.9 µM), without a hit: top-dose activity change, negative = inhibition, hits mostly inhibitors; 300,000 compounds, 1.2% hits; active means well fitted inhibition curve with a large enough effect; inconclusive means small, poorly fitted or top-dose-only effect, or effect the other way; inactive means flat fitted curve, though single readings scatter; tested in HEK293 cells; note: % is set by controls: 0 for no effect and ±100 for the full control effect; nearly all actives have a fitted effect of over 50% in size; luciferase read-out
RE007 growth inh = less growth of the S. pombe RE007 Vpr strain. AID 651644. S. pombe RE007 Vpr strain, BacTiter-Glo ATP luminescence, 24 h; control for the full effect not named in the record. Potency, µM (top dose mostly 92.2 µM), inactives show at the highest dose activity change, negative = less growth. 360,000 compounds, 0.21% hits; active = well fitted falling curve with a large enough effect; inconclusive = small, poorly fitted or top-dose-only effect; inactive = no such curve, though single readings can be large or run the other way;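 note: % is set by controls: 0 for no effect and ±100 for the full control effect; nearly all actives have a fitted effect of over 50% in size; the assay follows cell death caused by Vpr and the record does not say whether a fall means rescue or toxicity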
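Fission yeast strain RE007, carrying one chromosomally integrated HIV-1 vpr copy, was seeded at OD 0.01 in PMG+AL medium with 23 nL pinned compound. After 24 h at 30 °C and 99% humidity, viability was read by BacTiter-Glo luminescence.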
NS1 inh = influenza NS1 inhibition. Potency, µM (titrated, usually from 46.1 µM), without a hit: at the highest dose activity, positive = more growth. 270,000 compounds, 0.4% hits. S. cerevisiae slowed by influenza A NS1, growth recovery by OD600; note: actives are rising curves; nearly all actives have a fitted effect of over 50% in size
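Compounds were scored for reversing the slow growth caused by influenza A NS1 in S. cerevisiae, measured by optical density at 600 nm. Assay medium contained 2% galactose at pH 6.0; NS1-free yeast of the same strain were the positive control.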
Active calls of the source: *; ? = inconclusive; nt = not tested or not shown; & = joins results of further samples; [ ] = dose if it differs, or a comment. Unless noted, calls come from the whole dose curve; as a rule, active means well fitted rising curve with a large enough effect; inconclusive means small, poorly fitted or top-dose-only effect; inactive means no such curve, though single readings can be large or run the other way. Potency is the fitted concentration of half-maximal effect. Compounds as they come (roughly 4.7% active in at least one column).

SMILES	Cruzain inh Det	Cruzain inh noDet	Marburg entry inh	SARS PLP yeast	StopGo reporter	Lassa entry inh	RE007 growth inh	NS1 inh
CCOc1cc(/C=N/NC(=O)c2cccs2)cc([N+](=O)[O-])c1O	nt	nt	-4%[46.1 µM]	1%	4%	10%	4%	-5%
COc1cc(OC)c(OC)cc1CN1CCCC(C(=O)c2ccccc2SC)C1 (centres undefined)	nt	nt	?	1%	-1%	-21%	-13%	-2%
CN(C)/C(=N\S(=O)(=O)c1ccc(F)cc1)c1ccccc1	nt	nt	nt	12%	-15%	nt	-4%	0%
O=c1c2cnn(-c3ccc(Cl)cc3)c2ncn1Cc1ccc(Cl)cc1Cl	0.3%	6%	5%[46.1 µM]	nt	-5%	9%[46.1 µM]	nt	nt
Cc1ccc(-c2nc(CS(=O)(=O)CC(=O)N3CCN(C)CC3)c(C)o2)cc1	nt	nt	nt	-2%	?	nt	-5%	4%
CCS(=O)(=O)N1CCc2cc(C(=O)Nc3ccc(Br)cc3F)ccc21	8.2%	-12%	?	nt	0%	?	nt	nt
Cn1c(C(=O)NCCN2CCOCC2)cc2c(=O)n3ccccc3nc21	nt	nt	nt	-2%	2%	nt	-23%	10%
COc1ccc(C=O)cc1CN1CCCN(Cc2ccccc2F)S1(=O)=O	nt	nt	1%[46.1 µM]	0%	14%	2%[46.1 µM]	-2%	-10%
c1csc(Cc2nn3c(-c4ccncc4)nnc3s2)c1	-3.4%	-23%	-9%	0%	-17%	8%	7%	-6%
C[C@H](NC(=O)c1nc[nH]c1C(=O)N1CCN(c2ccccc2)CC1)C(=O)OC(C)(C)C	nt	nt	nt	2%	-10%	nt	-9%	-7%
O=C(O)c1ccc(/C=N/NC(=S)NCCN2CCOCC2)cc1	nt	nt	4%[46.1 µM]	0%	7%	19%	20%	nt
Cc1cc(C)cc(N2CC(c3nc(-c4cccc(Cl)c4)no3)CC2=O)c1 (centres undefined)	-9.8%	-3%	nt	nt	0%	-7%[46.1 µM]	nt	nt
O=C(O)c1cn(CCOc2ccccc2Cl)c2ccccc12	nt	nt	5%[46.1 µM]	2%	-12%	26%[46.1 µM]	2%	nt
CC(C)Cc1nn2c(=O)cc(COC(=O)c3cccc(NS(C)(=O)=O)c3)nc2s1	-1.4%	0%	nt	nt	2%	-10%[46.1 µM]	nt	nt
O=[N+]([O-])c1cc(-c2nnc(C34CC5CC(CC(C5)C3)C4)o2)cc([N+](=O)[O-])c1	4.5%	-2%	27%	-1%	-20%	-5%	-13%	2%
COc1ccc(-c2cn[nH]c2-c2ccc(OCC(=O)NN)cc2O)cc1	nt	nt	nt	1%	-18%	nt	-2%	?
CCc1cccc(NC(=O)C2CCC(CNS(=O)(=O)c3ccc(Br)s3)CC2)c1 (centres undefined)	-1.1%	-10%	1%[46.1 µM]	nt	?	19%[46.1 µM]	nt	nt
O=C(Nc1ccc(N2CCN(C(=O)c3ccccc3)CC2)c(Cl)c1)c1ccco1	-2.6%	3%	?	-8%	-68%	?	-15%	-37%
O=C(CCS(=O)(=O)c1cc2c(cc1Cl)NC(=O)CO2)NCCc1ccccc1	-9.5%	-4%	3%&3%[46.1 µM]	-3%	-11%&-17%	1%&5%[46.1 µM]	14%	8%
O=C(CSc1nnc(Cc2ccccc2)o1)Nc1cccc(F)c1	nt	nt	nt	0%	-11%	nt	-7%	-1%
O=c1c2sc3nc(N4CCOCC4)c4c(c3c2ncn1CCc1ccccc1)CCCC4	4.0%	-11%	4%	-1%	-10%	6%	-3%	5%
Oc1ccc(N=Nc2ccc(Br)cc2)c(O)c1	nt	nt	nt	-7%	48%[activator]	nt	-16%	-51%
CCC/C(O)=C1\C(=O)CC(C)(C)CC1=NCCO	1.6%	3%	12%[46.1 µM]	6%	-5%	1%	14%	6%
CCn1c(NCCc2ccc(OC)c(OC)c2)nc2c1c(=O)n(C)c(=O)n2C	2.4%	2%	?	-4%	?	-5%	1%	1%
CCc1cccc(C)c1NC(=S)NCc1ccccc1	-5.5%	6%	11%	?	4%	6%	3%	-1%
OCCn1c(-c2ccc(F)cc2)csc1=Nc1ccccc1	-2.7%	3%	-23%	7%	0%	-2%	-18%	-65%
COC(=O)c1ccc(C(=O)OC)c(NC(=O)COc2ccccc2OC)c1	-8.0%	14%	-7%	-11%	-19%	2%	0%[3.69 µM]	-22%
COc1ccc(C(=O)N/N=C/C2CC=CCC2)cc1OC (centres undefined)	nt	nt	5%[46.1 µM]	1%	47%[activator]	-17%	3%	nt
CC(C)C(=O)NC(=S)Nc1ccc(CN2CCOCC2)cc1	nt	nt	nt	0%	13%	nt	7%	5%
CCc1ccc(-c2cn3c(n2)sc2cc(C(=O)NCCC4=CCCCC4)ccc23)cc1	-0.3%	3%	nt	nt	15%	14%[46.1 µM]	nt	nt
Cc1ccc(OCC(=O)Nc2ccc3c(c2)sc(=O)n3C)cc1	-3.1%	-8%	0%[46.1 µM]	nt	0%	22%[46.1 µM]	nt	nt
Cc1cccc(Sc2nc(-c3ccccc3)ncc2C(=O)O)c1	nt	nt	?	0%	0%	21%[46.1 µM]	5%	nt
C=CCn1c(C)cc(C(=O)CSc2nnc3n(CCC)c(=O)c4ccccc4n23)c1C	nt	nt	?	nt	-11%	5%	7%	nt
Cn1c(-c2ccc(F)cc2)cnc1SCC(=O)NCc1ccco1	-9.9%	4%	4%[46.1 µM]	2%	4%	7%	35%	-1%
O=C(CSc1nnc(NC(=O)C2CCCCC2)s1)NCc1ccco1	nt	nt	4%[46.1 µM]	2%	10%	3%	13%	nt
O=C(CNC(=S)N(Cc1ccccc1)Cc1cccnc1)NC1CCCC1	-1.3%	17%	1%	?	2%	13%	1%	7%
O=C(CCNS(=O)(=O)c1ccccc1C(F)(F)F)NCC(c1ccco1)N1CCCCC1 (centres undefined)	nt	nt	-1%[46.1 µM]	-2%	-2%	0%	-8%	nt
Cc1ccsc1/C=C(\C#N)C(=O)NCc1ccco1	-3.4%	6%	?	-5%	19%	10%	12%	6%
O=C(CCN1CCN(c2ccccc2)CC1)N/N=C/c1ccc([N+](=O)[O-])o1	nt	nt	?	1%	-22%	-30%	-12%	nt
COc1ccc(-n2nc3c(N4CCC(C(=O)NCC(C)c5ccccc5)CC4)nnc(C)c3c2C)cc1 (centres undefined)	nt	nt	nt	3%	-24%	nt	-7%	5%
Cn1c(=O)n(Cc2ccccc2)c(=O)c2c1nc1n2CCCN1Cc1ccccc1	-2.5%	?	?	6%	0%	-4%	-8%	-59%
CCCCN(C(=O)Oc1ccccc1)C1CCS(=O)(=O)C1 (centres undefined)	nt	nt	1%	0%	-9%	11%	35%	2%
O=C(Nc1ccc(Cl)cc1)c1ccsn1	1.8%	-9%	?	11%	16%	-17%	?	-9%
CN(CCc1ccccc1)Cc1nc(-c2cnccn2)no1	nt	nt	14%	-1%	19%	-1%	0%	-2%
CC1CCCN(C(=O)C2CCCN(S(=O)(=O)c3cccc4nsnc34)C2)C1 (centres undefined)	1.5%	3%	-20%	14%	nt	-19%	-9%	9%
c1ccc2c(-c3nnc(SCc4cn5ccccc5n4)o3)c[nH]c2c1	-9.1%	-18%	22%	-6%	-3%	-24%	3%	-1%
COCCCN1C(=O)c2ccccc2CC1(C)C(=O)NC1CCCCC1 (centres undefined)	1.2%	-1%	7%[46.1 µM]	nt	27%	nt	nt	nt
CC1(C)NC(=O)N(CC(=O)OCC(=O)N2CCN(S(=O)(=O)c3ccccc3)CC2)C1=O	nt	nt	?	0%	-18%	-6%	3%	nt
CN(CC(=O)Nc1ccc(F)cc1)C(=O)c1ccccc1OCc1ccc(F)cc1	nt	nt	nt	-4%	-18%	nt	-8%	-7%
Cc1cccc(N2CC(=O)N(c3cccc(C)c3)CC2=O)c1	4.2%	-1%	10%	0%	12%	-2%	24%	2%

(cont.)
SMILES	Cruzain inh Det	Cruzain inh noDet	Marburg entry inh	SARS PLP yeast	StopGo reporter	Lassa entry inh	RE007 growth inh	NS1 inh
CCOc1ccc(S(=O)(=O)N2CCC(C(N)=O)CC2)c2ccccc12	-1.3%	?	?	9%	69%[activator]	-6%	-2%	-17%
COc1ccc(CN(C)CC(=O)Nc2sc3c(c2C#N)CCC3)c(OC)c1	nt	nt	?	2%	?	-29%	-7%	nt
CCc1nnc(NC(=O)CSc2nnc(COc3ccccc3C)o2)s1	2.3%	-25%	-6%	?	10%	-4%	11%	0%
C=CCNC(=O)c1onc(CCl)c1C(=O)OC	-4.4%	-7%	nt	-8%	-28%	nt	-3%	3%
O=C(Oc1ccccc1Cl)C1CCN(C(=O)c2ccc(F)cc2)CC1	nt	nt	-1%	0%	-23%	-16%	6%	nt
COc1ccccc1CNC(=O)CNC(=O)Cn1cnc2ccccc2c1=O	5.4%	9%	-19%	-4%	-11%	7%	2%	-6%
Cn1ncc([N+](=O)[O-])c1C(=O)Nc1ccc(C2CCCCC2)cc1	nt	nt	?	-7%	2%	8%[46.1 µM]	55%	nt
COC(=O)c1ccc(OCC2c3cc(OC)c(OC)cc3CCN2C(=O)COc2ccc(Cl)cc2)cc1 (centres undefined)	0.2%	-9%	nt	nt	?	3%[46.1 µM]	nt	nt
CCOC(=O)C1=C(O)/C(=C/c2ccccn2)SC1=Nc1ccc(Cl)cc1	-1.8%	?	?	-15%	?	?	-4%	6%
O=C(Nc1ccccc1C(=O)O)c1ccc(Cl)c(S(=O)(=O)N2CCOCC2)c1	-1.1%	-2%	8%&8%	-7%	52%[activator]	-2%	-3%	6%
CS(=O)(=O)Nc1cccc(C2=NN(S(=O)(=O)c3ccc(F)cc3)C(c3cccs3)C2)c1 (centres undefined)	-4.0%	?	14%	9%	15%	-9%	19%	?
COc1cc(NC(=O)c2cc(S(=O)(=O)N3CCC(C)CC3)cn2C)cc(OC)c1OC	0.3%	-1%	nt	nt	29%	1%[46.1 µM]	nt	nt
CC(C)CNC(=O)C(=O)NNC(=O)C1CCCCC1	8.8%	1%	?	-7%	-2%	-1%	-25%	8%
CC(C)Nc1nnc(SC(C)C(=O)N(C)C2CCCCC2)s1 (centres undefined)	nt	nt	-2%[46.1 µM]	2%	-10%	-15%	-13%	nt
COCCN(C(=O)COC(=O)CCOc1cc(C)ccc1C)c1c(N)n(Cc2ccccc2)c(=O)[nH]c1=O	nt	nt	2%	nt	-26%	0%	8%	nt
